Six1-Eya2 inh – blocks human Six1 binding to Eya2. AlphaScreen GST-Six1/His-Eya2 binding, biochemical; hits give low values; control for the full effect not named in the record. activity change, % (concentration not given with the values). hit rate 0.56% among 360,000. AID 651725; in the data active = activity change below about -65%; inconclusive = about -30% to -65%; inactive = above about -30%; also: % is scaled to controls: 0 for no effect and ±100 for the full control effect
Target sequence (O00167 whole entry, looked up): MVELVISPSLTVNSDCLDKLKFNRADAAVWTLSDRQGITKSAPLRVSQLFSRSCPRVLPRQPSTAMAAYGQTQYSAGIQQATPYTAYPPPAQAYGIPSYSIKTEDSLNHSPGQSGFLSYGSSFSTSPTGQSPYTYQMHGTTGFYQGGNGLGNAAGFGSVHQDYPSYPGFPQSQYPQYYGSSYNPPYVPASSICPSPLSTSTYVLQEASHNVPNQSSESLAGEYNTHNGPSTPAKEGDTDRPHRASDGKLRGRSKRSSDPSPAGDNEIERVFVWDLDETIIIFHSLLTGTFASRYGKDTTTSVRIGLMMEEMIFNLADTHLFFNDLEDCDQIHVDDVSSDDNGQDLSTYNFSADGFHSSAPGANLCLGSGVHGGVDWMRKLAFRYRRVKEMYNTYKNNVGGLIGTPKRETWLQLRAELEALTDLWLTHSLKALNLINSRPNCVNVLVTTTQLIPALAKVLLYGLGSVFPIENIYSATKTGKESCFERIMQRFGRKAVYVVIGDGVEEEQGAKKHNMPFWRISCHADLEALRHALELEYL
Target sequence (Q15475 whole entry, looked up): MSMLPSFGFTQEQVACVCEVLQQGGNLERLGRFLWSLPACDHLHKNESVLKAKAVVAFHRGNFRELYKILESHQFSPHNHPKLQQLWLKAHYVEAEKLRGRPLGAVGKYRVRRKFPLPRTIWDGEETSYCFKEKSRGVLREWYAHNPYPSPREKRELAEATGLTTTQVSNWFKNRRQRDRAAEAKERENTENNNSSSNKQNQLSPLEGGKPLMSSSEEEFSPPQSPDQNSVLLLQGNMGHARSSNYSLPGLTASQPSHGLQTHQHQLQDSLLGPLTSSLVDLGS
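Six1/Eya2 binding was read as AlphaScreen signal after compounds were pinned into GST-Six1 plus His-tagged Eya2 (5X stock 250/500 nM) in pH 8.0 Tris/NaCl/TCEP buffer, beads added, then incubated 1 h, 37 C, dark.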
TRPV1 PAM – potentiators of human vanilloid receptor 1 (TRPV1); Q8NER1; TRPV1-expressing cells, Fluo-8 calcium influx, capsaicin EC20 potentiation; host cell line not named in the record; control for the full effect not named in the record; potentiation, % at 8.33 µM; hit rate 0.02% among 320,000; AID 540277; active means potentiation above 80%; inconclusive means 30% to 80%; inactive means below 30%; also: 0% is about no effect
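Cells expressing TRPV1 were dye-loaded with Fluo-8 and read kinetically: 10 s baseline, 3 min after compound (agonist portion), then 2 min after EC20 capsaicin (allosteric enhancer portion). Calcium-bound dye fluorescence at 480/520 nm.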
CtBP-E1A blk – inhibitors of CtBP/E1A interaction; AlphaScreen GST-E1A/His-CtBP binding, 1536-well; hits give low values; control for the full effect not named in the record; activity change, % (concentration not given with the values); hit rate 0.49% among 340,000; in the data active means activity change below about -65%; inconclusive means about -30% to -65%; inactive means above about -30%; also: % is scaled to controls: 0 for no effect and ±100 for the full control effect
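Steps: dispense buffer (Tris pH 8.0, NaCl 300 mM, TCEP 1 mM, BSA, Tween 20); add 5X protein mix (GST-E1A, His-CtBP, 125 nM each); pin 23 nL compound; 2 h at 37 °C, dark; add 5X beads (50 ug/mL); 1 h; read.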
TRPML1 ag – human mucolipin-1 channel agonism | Q9GZU1 | TRPML1-expressing cells, Ca2+ dye fluorescence, FDSS; host cell line not named in the record; reference of the full effect not given here | activation, % (no concentration beside the values) | hit rate 0.12% among 410,000 | AID 624414; in the data active = activation above about 50%; inconclusive = about 30% to 50%; inactive = below about 30%; also: 0% is about no effect; the text of the record puts the active cut at 80%
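In this qHTS format, compounds were pin-transferred onto Ca8-dye-loaded TRPML1-DL cells induced with Tet overnight, and intracellular Ca2+ fluorescence was recorded kinetically for 110 s after a 10 s baseline. A subsequent 4uM final 54-4 (EC80) addition followed by a second 110 s read served as the antagonist phase.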
D2 potentiator – potentiates the human D2 dopamine receptor allosterically; hit rate 0.23% among 360,000; potentiation, % (concentration not given with the values); DiscoveRx D2 beta-arrestin cells, luminescence, 90 min; 100% = 57 uM dopamine signal; AID 624464; P14416; active = potentiation of 50% or more; inconclusive = 30% to 50%; inactive = 30% or less;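 also: compound concentration not given in the record; tested on top of an EC20 dose of dopamine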
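PathHunter D2 cells, attached overnight at 37 deg C, received compound in DMSO plus dopamine at EC20 (50 nM final) for 90 min at 37 deg C. Beta-arrestin recruitment was read as luminescence after 1 h with detection reagent at ambient temperature.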
TRPML1 blocker – inhibitors of human TRPML1 channel; TRPML1-inducible cells, Ca2+ dye fluorescence, FDSS; hits give low values; inhibition of EC80 agonist-evoked calcium signal; AID 624415; activity change, negative = inhibition, % (concentration not given with the values); hit rate 0.02% among 390,000; Q9GZU1; in the data active means activity change below about -50%; inconclusive means about -30% to -50%; inactive means above about -30%;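 also: stimulus is agonist 54-4 at its EC80 concentration; % is scaled to controls: 0 for no effect and ±100 for the full control effect; compound concentration not given in the record; the text of the record puts the active cut at -80%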
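Tet-induced TRPML1-DL cells loaded with Ca8 no-wash calcium dye were read kinetically on FDSS. Compound addition was followed by EC80 agonist 54-4 (4 uM final); inhibition was read over 110 s.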
* marks the source's active call; other numbers are inactive results; ? = inconclusive; . = not tested or not shown; & = joins results of further samples.

No. | SMILES | Six1-Eya2 inh | TRPV1 PAM | CtBP-E1A blk | TRPML1 ag | D2 potentiator | TRPML1 blocker
1 | O=C1NC(c2ccc(-c3ccccc3[N+](=O)[O-])o2)C(C(=O)c2ccccc2)C(O)(C(F)(F)F)N1 (stereo unspecified) | -3.9 | 3.6 | . | 1.0 | 8.8 | 5.1
2 | Cc1occc1-c1nnc(SCC(=O)N2CCCCC2)n1C | 1.9 | -5.7 | -2.2 | 0.5 | 0.8 | -16.4
3 | Cc1nc(NC(=O)c2ccc(F)cc2)sc1C(=O)Nc1ccc2c(c1)CCC2 | -11.4 | . | -4.5 | 2.9 | -5.3 | 7.3
4 | COc1ccc(S(=O)(=O)NCCSC(C)(C)C)cc1Cl | 3.2 | -26.6 | 16.6 | -0.5 | -8.7 | -0.3
5 | O=C(CSc1nnc(-c2cccnc2)n1Cc1ccco1)N1CCc2ccccc21 | 1.2 | 22.0 | 2.3 | 0.1 | -16.3 | 5.1
6 | CC(C)C[C@H](NC(=O)[C@@H]1O[C@H]1C(=O)O)C(=O)NCCCCN=C(N)N | -0.3 | 6.6 | 3.5 | 0.1 | 3.3 | 3.7
7 | N#Cc1ccccc1NC(=O)COc1ccccc1C(=O)Nc1ccccc1 | -4.6 | . | -2.3 | 5.4&-1.2 | 0.2 | -6.3
8 | Cc1cc(OCC(=O)N(Cc2ccco2)C2CCS(=O)(=O)C2)ccc1Cl (stereo unspecified) | -9.0 | 4.0 | -8.1 | 0.0 | -2.3 | -13.1
9 | C[C@@H]1CN([C@@H](C)CO)C(=O)CCCn2nncc2CO[C@@H]1CN(C)C(=O)Nc1ccccc1F | 8.2 | . | 0.9 | 0.1 | 8.3 | -1.1
10 | CCOC(=O)CC(NC(=O)C1c2ccccc2Oc2ccccc21)c1ccc(C)cc1 (stereo unspecified) | 1.1 | 7.2 | 7.0 | -0.3 | -6.1 | -3.2
11 | CCCn1nc(NS(C)(=O)=O)c2cc3cccc(C)c3nc21 | -2.1 | 0.6 | 4.2 | 0.1 | -4.2 | 7.5
12 | O=C(c1ccc2nc(Cc3ccccc3F)oc2c1)N1CC[C@H](O)C1 | -1.3 | -8.4 | 5.4 | -0.1 | -0.7 | -7.2
13 | C=Cc1ccc(CC2(C)C(=O)Nc3ccc(Cl)cc32)cc1 (stereo unspecified) | 3.7 | . | -10.6 | 2.2 | -2.9 | .
14 | O=C1CN(S(=O)(=O)c2cccc(Cl)c2Cl)CCN1 | 7.2 | -14.2 | 8.6 | -0.1 | 9.3 | -13.4
15 | Cc1cccc(N2CCN(C(=O)Cc3c(C(=O)O)[nH]c4ccc(Cl)cc34)CC2)c1C | -1.0 | 11.9 | -4.8 | -0.2 | -16.2 | 5.7
16 | COC(=O)c1c(NC(=S)NNS(=O)(=O)c2ccc(OC)cc2OC)sc2c1CCCCCC2 | -16.5 | 8.2 | 6.3 | 1.4 | -29.2 | -3.9
17 | COc1ccc(CCNC(=O)C(=O)Nc2ccc3c(c2)OCO3)cc1OC | 12.6 | 21.8 | 22.7 | -0.4 | 1.3 | -21.5
18 | O=C(CC(=O)c1ccccc1)Nc1ccc2c(c1)OCCO2 | -12.3 | -21.7 | -9.1 | -0.8 | -17.2 | 5.6
19 | CN1C(=O)C(C)(C)c2cc(S(=O)(=O)N3CCCC(C(=O)NCc4ccc(F)cc4)C3)ccc21 (stereo unspecified) | 4.0 | -7.6 | 2.9 | -1.1 | 1.1 | -4.0
20 | CN1C(=O)Cc2cc(S(=O)(=O)N3CCN(c4ccccc4F)CC3)ccc21 | -2.8 | -13.5 | . | -0.6&0.1 | -4.8 | -6.6&4.2
21 | CC(=O)Nc1ccc(C(=O)N2CCCCC2c2cc(C(=O)NCc3ccc(F)cc3)no2)cc1 (stereo unspecified) | 1.5 | . | 2.5 | -0.4 | -9.0 | .
22 | O=C(Nn1c(SCc2cccc([N+](=O)[O-])c2)nc2ccccc2c1=O)c1ccccc1 | -12.9 | -3.2 | 4.3 | 2.1 | -11.4 | 20.0
23 | COc1ccc(CNC(=O)C2CCN(S(=O)(=O)c3cc(OC)ccc3OC)CC2)cc1 | -0.5 | -9.9 | -2.5 | -0.4 | -16.1 | 2.5
24 | COCCCNC(=O)CC(NS(=O)(=O)c1ccc(Cl)cc1)c1ccc(OC)cc1 (stereo unspecified) | -6.8 | 4.9 | -13.0 | 0.4 | -1.1 | 4.3
25 | CC(=O)Nc1ccc2c(c1)C(=O)N(c1cccc3ccccc13)C2=O | -9.1 | -14.2 | -8.1 | 0.2 | 1.7 | 15.4
26 | O=C(NCC1CCCO1)c1ccc2nc(N3CCCCC3)sc2c1 (stereo unspecified) | 0.3 | -27.8 | 1.2 | -1.1 | 1.4 | 3.9
27 | Cc1ccc(C(=O)NCC(=O)O)cc1S(=O)(=O)N1CCCCC1 | 6.8 | -23.1 | 5.5 | 0.0 | 3.7 | 21.5
28 | COc1ccc(C(=O)NCC(=O)OCC(=O)N2CCc3ccccc32)cc1 | -2.5 | -4.1 | -6.6 | 0.5 | -9.1 | -2.3
29 | CC(C)CCn1cnc2c(sc3nc4c(cc32)CSC(C)(C)C4)c1=O | 0.2 | -13.8 | 4.4 | 0.5 | -22.5 | 1.8
30 | Cc1ccc(NC(=O)c2ccc(C)cc2)cc1 | 4.4 | 5.1 | 8.9 | 0.7 | -16.1 | 14.1
31 | CN1C(C(=O)NCc2ccco2)CC2Cn3c(nc4cc(Cl)c(Cl)cc43)C21 (stereo unspecified) | -4.5 | 10.9 | 3.2 | -0.7 | -11.1 | 21.7
32 | CC(C)c1ccccc1OCC(O)CN(CC(O)COc1cccc2ccccc12)C(C)C (stereo unspecified) | -3.5 | ? | -0.9 | 0.8 | -10.9 | 10.5
33 | CC(=O)N1CCN(c2ccc(NC(=O)c3ccc(Br)o3)cc2Cl)CC1 | 18.5 | 2.8 | 0.0 | -0.3 | -1.5 | -21.3
34 | O=C(CCC(=O)N/N=C/c1ccco1)N/N=C/c1ccco1 | -1.1 | 0.1 | 6.6 | -0.4 | -7.3 | -0.7
35 | Cc1ccc(-n2cnnn2)c(S(=O)(=O)N2CCOCC2)c1 | -1.0 | ? | -2.0 | 0.9 | 1.7 | 17.5
36 | Cc1cccnc1NC(=O)Nc1ccc(F)cc1 | 9.1 | -13.4 | -1.0 | 1.8 | -2.2 | 11.3
37 | Cc1ccc(-c2csc3nc[nH]c(=S)c23)cc1 | -15.5 | -16.8 | 2.4 | 0.6 | -12.9 | -11.2
38 | CNc1ccc(OC(F)F)cc1C(=O)c1ccccc1 | -23.0 | -6.8 | -15.0 | 0.5 | -6.8 | 4.0
39 | OC1CCN(Cc2cccc(Oc3ccccc3)c2)CC1 | 5.8 | -15.0 | 25.6 | 0.1 | -28.6 | 1.0
40 | COCCNC(=O)c1onc(CSc2ccccc2)c1C(=O)O | 2.6 | 1.8 | 4.4 | -0.8 | -31.9 | -13.7

Quoted at random: five records from the list, in no set order.
No. | SMILES | Six1-Eya2 inh | TRPV1 PAM | CtBP-E1A blk | TRPML1 ag | D2 potentiator | TRPML1 blocker
38 | CNc1ccc(OC(F)F)cc1C(=O)c1ccccc1 | -23.0 | -6.8 | -15.0 | 0.5 | -6.8 | 4.0
30 | Cc1ccc(NC(=O)c2ccc(C)cc2)cc1 | 4.4 | 5.1 | 8.9 | 0.7 | -16.1 | 14.1
3 | Cc1nc(NC(=O)c2ccc(F)cc2)sc1C(=O)Nc1ccc2c(c1)CCC2 | -11.4 | . | -4.5 | 2.9 | -5.3 | 7.3
4 | COc1ccc(S(=O)(=O)NCCSC(C)(C)C)cc1Cl | 3.2 | -26.6 | 16.6 | -0.5 | -8.7 | -0.3
20 | CN1C(=O)Cc2cc(S(=O)(=O)N3CCN(c4ccccc4F)CC3)ccc21 | -2.8 | -13.5 | . | -0.6&0.1 | -4.8 | -6.6&4.2

Continuation:
No. | SMILES | Six1-Eya2 inh | TRPV1 PAM | CtBP-E1A blk | TRPML1 ag | D2 potentiator | TRPML1 blocker
41 | Cc1ccccc1C(=O)NC(C(N)=O)P(=O)(OC(C)C)OC(C)C (stereo unspecified) | -2.0 | -5.7 | 15.7 | 0.6 | -2.3 | 8.5
42 | COc1ccc2cc3cc(C(=O)Nc4ccc5c(c4)OCCO5)oc3nc2c1 | -2.6 | 3.2 | -6.9 | -0.4 | -3.8 | -1.5
43 | C[n+]1cc[nH]c1SCC(=O)c1ccc(Cl)cc1 | 11.1 | 0.4 | 0.0 | -1.0 | 0.3 | -0.3
44 | COc1cccc(OC)c1OCCCOc1cccc2cccnc12 | 5.7 | 5.0 | -3.9 | 0.6 | -5.4 | 6.4
45 | COc1ccc(C=Nc2cccc3ncccc23)cc1 | -1.7 | -1.3 | . | 1.3 | -1.7 | 8.5
46 | COc1cccc(N2CCN(C(=O)c3cccc(NC(=O)C4=C(C)OCCS4)c3)CC2)c1 | -19.5 | . | 0.9 | -0.3 | 0.4 | 7.7
47 | Clc1ccc2nc(CSc3nnc4ccccn34)cn2c1 | 9.1 | -8.4 | -2.6 | 0.5 | -10.9 | 3.4
48 | O=S1(=O)CC(N2CC=CC2)CN1Cc1ccccc1 (stereo unspecified) | -1.3 | . | -4.9 | -0.3 | -11.5 | .

In another format: results already given
[42] COc1ccc2cc3cc(C(=O)Nc4ccc5c(c4)OCCO5)oc3nc2c1
[48] O=S1(=O)CC(N2CC=CC2)CN1Cc1ccccc1 (stereo unspecified)
assay / compound,42,48
Six1-Eya2 inh,-2.6,-1.3
TRPV1 PAM,3.2,.
CtBP-E1A blk,-6.9,-4.9
TRPML1 ag,-0.4,-0.3
D2 potentiator,-3.8,-11.5
TRPML1 blocker,-1.5,.

Remaining list, next part.
No. | SMILES | Six1-Eya2 inh | TRPV1 PAM | CtBP-E1A blk | TRPML1 ag | D2 potentiator | TRPML1 blocker
49 | O=C(Nc1ccc(Oc2ccccc2)nc1)C1CCN(Cc2cccc(F)c2)CC1 | 1.5 | -2.7 | 0.0 | 2.0 | -32.6 | 7.8
50 | COc1ccc(-n2nc3c(N4CCC(C(=O)NCc5ccco5)CC4)nnc(C)c3c2C)cc1 | -17.8 | 4.9 | . | 1.4 | -7.0 | -16.6
51 | CC(=O)Nc1cccc(NC(=O)c2ccc3c(c2)CCN3S(C)(=O)=O)c1 | 25.8 | -2.1 | . | -0.4 | 2.7 | -6.3
52 | COc1cc2c(C(=O)NCCCN3CCN(c4cccc(Cl)c4)CC3)cn(C)c(=O)c2cc1OC | -9.0 | 8.7 | -5.7 | 0.4 | -30.6 | 13.7
53 | CC(C)CN(C(=O)CSc1nnc2ccccn12)c1c(N)n(CC(C)C)c(=O)[nH]c1=O | 6.2 | -10.1 | -1.9 | 0.1 | -23.6 | 0.3
54 | COc1cc(C2NC(=O)NC(C)=C2C(C)=O)ccc1O (stereo unspecified) | 13.1 | 25.0 | -19.4 | -0.3 | -2.7 | -8.3
55 | COc1ccccc1NC(=S)N(Cc1ccc(C)cc1)Cc1ccccn1 | 0.5 | 18.9 | 4.9 | -0.6 | -1.0 | 5.5
56 | O=C(Nc1ccc(-n2cc(Br)cn2)cc1)c1ccncc1 | 2.9 | 9.3 | . | . | -9.7 | .

Screens from PubChem BioAssay.

This is a random part of the collection. Share with any hit: about 0.95%.
